Vaccinia Venus – vaccinia inhibition (Venus reporter); Vaccinia virus Venus reporter expression, fluorescence; Potency, µM (titrated, usually from 36.5 µM), for inactives: top-dose activity change, negative = inhibition, hits mostly inhibitors; 330,000 tested, 0.46% active; active means well fitted inhibition curve with a large enough effect; inconclusive means small, poorly fitted or top-dose-only effect; inactive means no such curve, though single readings can be large or run the other way; tested in A549 cells; note: nearly all actives have a fitted effect of over 30% in size; inactives centre near -10
Vaccinia mCherry – inhibitors of vaccinia virus infection (mCherry reporter signal). Vaccinia virus mCherry reporter infection, fluorescence; about a quarter of the inactives have no number. Potency, µM (series often up to 36.5 µM), for the others: at the highest dose activity change, negative = inhibition, actives largely listed as inhibitors. 310,000 tested, 0.63% active. AID 720579; active = well fitted inhibition curve with a large enough effect; inconclusive = small, poorly fitted or top-dose-only effect; inactive = no such curve, though single readings can be large or run the other way; tested in A549 cells; note: nearly all actives have a fitted effect of over 35% in size; inactives centre near -10
Numbers without * were called inactive; & = joins results of further samples; [ ] = another dose, or the depositor's remark. % is set by controls: 0 for no effect and ±100 for the full control effect; potency is the fitted concentration of half-maximal effect. Compounds as they come, and some 0.82% of all compounds hit somewhere here.

Results for O=C(CSc1cccc2cccnc12)Nc1cccc(S(=O)(=O)N2CCOCC2)c1 ?
Vaccinia Venus: -11%; Vaccinia mCherry: 1%

Results for Cc1ccc(C(=O)N[C@@H](C)CN2C3=NC[C@@H](Cc4ccccc4)N3C[C@H]2Cc2ccc(O)cc2)cc1Br ?
Vaccinia Venus: inconclusive; Vaccinia mCherry: inconclusive

Results for CCc1ccc([C@@H]2CC(=O)[C@@H]3CN(S(=O)(=O)c4ccc(C)cc4)[C@H](c4ccc(Cl)cc4)C[C@@H]3N2S(=O)(=O)c2ccc(C)cc2)cc1 ?
Vaccinia Venus: 3%; Vaccinia mCherry: 23%

What do the screens show for `O=c1sc2ccccc2c(N2CCN(c3ccccc3)CC2)c1[N+](=O)[O-]`?
Vaccinia Venus: -10%; Vaccinia mCherry: inactive

Results for COC(=O)C1=C(C)N(Cc2ccccc2)C(=NCc2cc(OC)c(OC)c(OC)c2)N[C@H]1c1cccc(F)c1 ?
Vaccinia Venus: -26%; Vaccinia mCherry: inactive

Results for Cc1ccc(-c2cc3nc(-c4ccccc4)cc(N4CCC5(CC4)OCCO5)n3n2)cc1 ?
Vaccinia Venus: -12%

What do the screens show for `Cc1cc(Nc2ccccc2Cl)c2ccccc2n1`?
Vaccinia Venus: -17%; Vaccinia mCherry: -13%

What do the screens show for `COc1ccc2c3c([nH]c2c1)C(C)=NCC3`?
Vaccinia Venus: -3%&-12%&22%; Vaccinia mCherry: -12%&-29%&-10%

What do the screens show for `N#C/C(=C\c1ccc(Cl)cc1)C(=O)NCC1CCCO1` (stereo unspecified)?
Vaccinia Venus: -4%; Vaccinia mCherry: -6%

Results for c1ccc(CN2CCC3CC2c2ccc(N4CCOCC4)cc23)cc1 (stereo unspecified) ?
Vaccinia Venus: -5%; Vaccinia mCherry: inconclusive

What do the screens show for `COc1cccc(CNC(=O)C(NS(=O)(=O)c2ccc3c(c2)CCN3C(C)=O)C(C)C)c1` (stereo unspecified)?
Vaccinia Venus: -18%&-2%; Vaccinia mCherry: -9%&6%

How did CCCC[n+]1ccn(C2=C([O-])c3ccccc3C(=O)/C2=N\S(=O)(=O)c2ccccc2)c1 do in these assays?
Vaccinia Venus: inconclusive; Vaccinia mCherry: inconclusive

7 records picked at random from the list so far, as already listed:
How did CCCC[n+]1ccn(C2=C([O-])c3ccccc3C(=O)/C2=N\S(=O)(=O)c2ccccc2)c1 do in these assays?
Vaccinia Venus: inconclusive; Vaccinia mCherry: inconclusive

Results for Cc1ccc(-c2cc3nc(-c4ccccc4)cc(N4CCC5(CC4)OCCO5)n3n2)cc1 ?
Vaccinia Venus: -12%

What do the screens show for `COc1ccc2c3c([nH]c2c1)C(C)=NCC3`?
Vaccinia Venus: -3%&-12%&22%; Vaccinia mCherry: -12%&-29%&-10%

Results for O=C(CSc1cccc2cccnc12)Nc1cccc(S(=O)(=O)N2CCOCC2)c1 ?
Vaccinia Venus: -11%; Vaccinia mCherry: 1%

What do the screens show for `Cc1cc(Nc2ccccc2Cl)c2ccccc2n1`?
Vaccinia Venus: -17%; Vaccinia mCherry: -13%

What do the screens show for `COc1cccc(CNC(=O)C(NS(=O)(=O)c2ccc3c(c2)CCN3C(C)=O)C(C)C)c1` (stereo unspecified)?
Vaccinia Venus: -18%&-2%; Vaccinia mCherry: -9%&6%

Results for c1ccc(CN2CCC3CC2c2ccc(N4CCOCC4)cc23)cc1 (stereo unspecified) ?
Vaccinia Venus: -5%; Vaccinia mCherry: inconclusive

(further entries)
What do the screens show for `CC(C)(C)NC(=O)C(c1ccncc1)N(Cc1cccs1)C(=O)c1csnn1` (stereo unspecified)?
Vaccinia Venus: 8%; Vaccinia mCherry: -12%

What do the screens show for `C[C@H](NC(=O)c1ccco1)C(=O)N1CCCC1`?
Vaccinia Venus: -13%; Vaccinia mCherry: inactive

Results for CCc1nc(N2CCN(C(=O)CCCl)CC2)c2c3c(sc2n1)CCCC3 ?
Vaccinia Venus: inconclusive; Vaccinia mCherry: inconclusive

What do the screens show for `Cc1ccc(OCC(=O)N/N=C\c2cccs2)c([N+](=O)[O-])c1`?
Vaccinia Venus: 1%; Vaccinia mCherry: -13%

What do the screens show for `NN=C1c2ccccc2C(=O)C1C(=O)C(c1ccccc1)c1ccccc1` (stereo unspecified)?
Vaccinia mCherry: 335%[activator]

Results for CC(CN1CCOCC1)C(C#N)(c1ccccc1)c1ccccc1 (stereo unspecified) ?
Vaccinia Venus: -9%; Vaccinia mCherry: inconclusive

What do the screens show for `Cc1onc(-c2c(F)cccc2Cl)c1C(=O)NNC(=O)C1CCN(Cc2ccccc2)CC1`?
Vaccinia Venus: -5%; Vaccinia mCherry: -5%

How did Brc1ccc(-c2nnc(-c3cccnc3)o2)cc1 do in these assays?
Vaccinia Venus: -13%; Vaccinia mCherry: -14%

Results for Cc1c(CCC(=O)NCCCN2CCCC2=O)c(=O)oc2c(C)c(O)ccc12 ?
Vaccinia Venus: -4%; Vaccinia mCherry: -5%

What do the screens show for `COc1ccc(CCC(=O)N2c3ccccc3N=C(c3ccc(C(F)(F)F)cc3)C2C(=O)NC(C)(C)C)cc1` (stereo unspecified)?
Vaccinia Venus: inconclusive; Vaccinia mCherry: inconclusive

Results for CCOc1ccc(CN2CCc3nc(N4CCN(c5ncccn5)CC4)ncc3C2)cc1OC ?
Vaccinia Venus: -29%; Vaccinia mCherry: -29%

What do the screens show for `COc1ccccc1N1CCN(CC(=O)Nc2c(C)n(C)n(-c3ccccc3)c2=O)CC1`?
Vaccinia Venus: -9%; Vaccinia mCherry: inactive

Results for C/C(Cl)=C/Cn1c(NCCN(C)C)nc2c1c(=O)n(C)c(=O)n2C ?
Vaccinia Venus: -1%; Vaccinia mCherry: inactive

Results for CCn1ccnc1CN(C)Cc1nc(-c2ccc(C(=O)OC)cc2)no1 ?
Vaccinia Venus: -6%[7.34 µM]; Vaccinia mCherry: -12%[7.34 µM]

Results for Nc1c(-c2ccccc2)nc2ncccn12 ?
Vaccinia Venus: 6%; Vaccinia mCherry: inconclusive

How did Clc1ccc(-c2nnc(SCc3cn4ccsc4n3)n2CC2CCCO2)cc1 (stereo unspecified) do in these assays?
Vaccinia Venus: -6%; Vaccinia mCherry: inactive

Results for CCc1ccc(-n2nc(C)c3c(C(=O)N4CCN(c5cccc(Cl)c5)CC4)cc(C)nc32)cc1 ?
Vaccinia Venus: -20%; Vaccinia mCherry: -23%

Results for COc1ccc(NC(=O)Cc2cccs2)cc1S(=O)(=O)N1CCCCC1 ?
Vaccinia Venus: -17%; Vaccinia mCherry: -4%

Results for Cc1ccc(S(=O)(=O)NCCC(=O)N2CC(C)OC(C)C2)cc1C (stereo unspecified) ?
Vaccinia Venus: -13%; Vaccinia mCherry: -9%

What do the screens show for `Cc1ccc(C(=O)N/C(=C\c2ccc(-c3ccc(Cl)cc3)o2)C(=O)NCCCN(C)C)cc1`?
Vaccinia Venus: 13µM*; Vaccinia mCherry: inconclusive

What do the screens show for `O=C(NN1CCCCC1)c1cccc2ccccc12`?
Vaccinia Venus: 3%; Vaccinia mCherry: inactive

How did COc1ccccc1Oc1nc(-c2ccccc2)cc(C)c1S(C)(=O)=O do in these assays?
Vaccinia Venus: -16%

Results for CC(/C=C/c1ccco1)=N\NC(=O)COc1ccc(C)c(C)c1 ?
Vaccinia Venus: -5%; Vaccinia mCherry: -7%

Results for Cc1cc(S(=O)(=O)Nc2ccc(C(=O)N3CCN(C(=O)c4ccco4)CC3)cc2)ccc1F ?
Vaccinia Venus: -29%; Vaccinia mCherry: -3%

Results for CC1=C(C(=O)OC(C)C)C(c2ccccc2)NC(=S)N1C (stereo unspecified) ?
Vaccinia Venus: -4%; Vaccinia mCherry: inactive

What do the screens show for `FC(F)(F)c1ccc(Cl)c(NC(=S)N/N=C/c2ccccc2C(F)(F)F)c1`?
Vaccinia Venus: -22%; Vaccinia mCherry: -16%

What do the screens show for `CCOC(=O)c1sc(NC(=O)c2cc3nc(-c4ccccc4)cc(C(F)(F)F)n3n2)c(C(=O)OCC)c1C`?
Vaccinia Venus: -6%; Vaccinia mCherry: -1%

What do the screens show for `C[C@H](CO)N1C[C@H](C)[C@@H](CN(C)S(=O)(=O)c2ccccc2C#N)OCc2cn(nn2)CCCC1=O`?
Vaccinia Venus: 2%; Vaccinia mCherry: inactive

Results for O=C1CCCC2=C1C(c1ccc(Cl)cc1)n1c(s/c(=C\c3ccc4ccncc4c3)c1=O)=N2 (stereo unspecified) ?
Vaccinia Venus: 2%; Vaccinia mCherry: -12%

What do the screens show for `CCC(=O)NC(NC(=S)Nc1ccc(S(N)(=O)=O)cc1)C(Cl)(Cl)Cl` (stereo unspecified)?
Vaccinia Venus: -14%; Vaccinia mCherry: -13%

Results for CCCn1c(=N)n(CC(=O)C(C)(C)C)c2ccccc21 ?
Vaccinia Venus: -19%; Vaccinia mCherry: inactive

What do the screens show for `Cc1cccc(-c2noc(-c3cc(-c4ccc(F)cc4)n[nH]3)n2)c1`?
Vaccinia Venus: -1%; Vaccinia mCherry: -1%

Results for O=C(O)C1Cc2ccccc2CN1C(=O)CCl (stereo unspecified) ?
Vaccinia Venus: -12%; Vaccinia mCherry: inactive

How did NC(=O)C1CCCN(C(=O)NC2CCCCC2)C1 (stereo unspecified) do in these assays?
Vaccinia Venus: -15%

What do the screens show for `Cc1nc(CNC(=O)C2CCC(=O)N(Cc3cccc(F)c3)C2)sc1C` (stereo unspecified)?
Vaccinia Venus: -16%; Vaccinia mCherry: -13%

Results for COc1ccc([C@H]2CC(=O)C=C(/C=C/Cc3ccccc3)C2)cc1 ?
Vaccinia Venus: -16%; Vaccinia mCherry: inconclusive

Results for O=S(=O)(Nc1ccc2c(c1)OCCO2)c1cccc2nsnc12 ?
Vaccinia Venus: 0%; Vaccinia mCherry: inactive

How did Cc1cc2cc(CN(Cc3cccs3)C(c3nnnn3C(C)(C)C)C(C)C)c3nnnn3c2cc1C (stereo unspecified) do in these assays?
Vaccinia Venus: -5%; Vaccinia mCherry: -8%

Results for O=[N+]([O-])c1cc(-c2csc(NCCc3nc4cc(Cl)c(N5CCCCC5)cc4n3CCCO)n2)ccc1Cl ?
Vaccinia Venus: -11%; Vaccinia mCherry: -24%

How did Cc1ccc2c(c1)C(c1ccc(F)cc1)N(C(=O)C1CC1)CC(=O)N2 (stereo unspecified) do in these assays?
Vaccinia Venus: -14%; Vaccinia mCherry: -18%

What do the screens show for `O=C(CSc1nc2c([nH]c3ccccc32)c(=O)n1-c1cccc(C(F)(F)F)c1)N1CCc2ccccc21`?
Vaccinia Venus: -22%; Vaccinia mCherry: -17%

What do the screens show for `Cc1cc(C)cc(CN2C(=O)NC3(CCCCCC3)C2=O)c1`?
Vaccinia Venus: -17%; Vaccinia mCherry: 0%

Results for C#CCOCCOCCOCCNc1nc(N2CCN(C(=O)CCCCCCCCCCNC(=O)[C@H](CCCCN)n3cc(C)nn3)CC2)nc(N2CCN(C(=O)CCCCCCCCCCNC(=O)[C@H](CCCCN)n3cc(CCCC(=O)O)nn3)CC2)n1 ?
Vaccinia Venus: inconclusive; Vaccinia mCherry: inactive

Results for COc1cc(C2C(C(=O)c3ccco3)=C(O)C(=O)N2Cc2cccnc2)cc(OC)c1OC (stereo unspecified) ?
Vaccinia Venus: -5%; Vaccinia mCherry: -7%

How did Cc1ccccc1OCC(=O)NCC(=O)OCC(=O)c1ccc([N+](=O)[O-])cc1 do in these assays?
Vaccinia Venus: -10%&-7%; Vaccinia mCherry: 11%&-1%

How did COc1cccc(/C=N/Nc2nnc(C)n2N)c1O do in these assays?
Vaccinia Venus: inconclusive; Vaccinia mCherry: 7.1µM*

What do the screens show for `C=CC[C@H]1CC(C)=C[C@H](CC=C)N1C(=O)c1cc(COc2ccccc2SC)on1`?
Vaccinia Venus: -3%; Vaccinia mCherry: -10%

What do the screens show for `COC(=O)c1cc(S(=O)(=O)N2CCN(Cc3ccccc3)CC2)cn1C`?
Vaccinia Venus: -4%; Vaccinia mCherry: -1%

Results for CC(=O)N1CCC2(CC1)OC(=O)C(C)=C2C(=O)NCc1ccc(Cl)cc1 ?
Vaccinia Venus: -15%; Vaccinia mCherry: -6%

How did COc1cc(C2/C(=C(\O)c3ccc4c(c3)OCCO4)C(=O)C(=O)N2Cc2ccco2)ccc1O (stereo unspecified) do in these assays?
Vaccinia Venus: -11%; Vaccinia mCherry: -14%

What do the screens show for `CSCCC(NS(=O)(=O)c1ccc(C)cc1)C(=O)N1CCCC1` (stereo unspecified)?
Vaccinia Venus: 0%; Vaccinia mCherry: -16%

What do the screens show for `O=C(CCNS(=O)(=O)c1ccccc1)OCC(=O)c1ccc(F)cc1`?
Vaccinia Venus: -13%; Vaccinia mCherry: inactive

How did C#C[C@]1(O)CCC2C3CCC4=Cc5oncc5C[C@@]4(C)C3CC[C@@]21C (stereo partly specified) do in these assays?
Vaccinia Venus: -14%; Vaccinia mCherry: -19%

How did COc1cc(Cl)c(C)cc1NC(=O)c1cnc2c(-c3cccc(C)c3)c(C)nn2c1C do in these assays?
Vaccinia Venus: -7%; Vaccinia mCherry: -9%

Results for CN(C(=O)c1ccc(NC(=O)Cc2ccc(NC(=O)C3CCN(C(=O)C4CCCC4)CC3)cc2)cc1)C1CCCC1 ?
Vaccinia Venus: -3%; Vaccinia mCherry: inactive

What do the screens show for `CC(=O)NC(Cc1c[nH]c2ccccc12)C(=O)Nc1ccc2c(c1)OCO2` (stereo unspecified)?
Vaccinia Venus: 5%

Compound activity from PubChem BioAssay.
